Screening results as filed in PubChem BioAssay.
A1 apoptosis 2 – A1 inhibitors via caspase activation, primary screen, cell-based, luminescence, HTS, two replicates; 24,000 tested, under 10 active; caspase activation, % (no concentration beside the values); MEF A1-2A-BIM cells, caspase-Glo luminescence, 3 h; percent of clofoctol response, DMSO zero; AID 2465, 2010; in the data active means caspase activation above about 5.9%;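 further: wells of about 30 µL received 50 nL stock; the first replicate is given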
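Material: mouse embryonic fibroblasts co-expressing A1 and BIM (A1-2A-BIM), primed for A1 dependence / Quantity: 2500 cells/well / Buffer or medium: RPMI-1640 growth medium with 10% FBS / Doses: 50 nL compound per well, pinned / Schedule: 3 h compound exposure at 37 °C / Signal: Caspase-Glo luminescence (DEVD substrate) / Measure: Caspase-3/7 activation, seen as rise in luminescence signal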
* hit, by the source's call; & = joins results of further samples. An excerpt; count on the stated rates, not on these rows.

1. COc1ccc(S(=O)(=O)N(C)C[C@H]2Oc3c(NC(=O)Nc4ccccc4)cccc3C(=O)N([C@@H](C)CO)C[C@H]2C)cc1
- A1 apoptosis 2: -0.1
2. COc1ccc(S(=O)(=O)N(C)C[C@@H]2Oc3ccc(NS(C)(=O)=O)cc3CC(=O)N([C@@H](C)CO)C[C@@H]2C)cc1
- A1 apoptosis 2: -1.1
3. C[C@@H]1CCCCO[C@H](CN(C)Cc2ccc(C(=O)O)cc2)[C@@H](C)CN([C@@H](C)CO)C(=O)c2cc(NC(=O)C3CCCCC3)ccc2O1
- A1 apoptosis 2: 0.6
4. C[C@@H]1CN([C@@H](C)CO)C(=O)c2cc(NS(=O)(=O)c3cccs3)ccc2O[C@@H]1CN(C)S(=O)(=O)c1cccs1
- A1 apoptosis 2: 0.4
5. C[C@H](CO)N1C[C@H](C)[C@@H](CN(C)Cc2ccc(C(=O)Nc3ccccc3N)cc2)Oc2ccc(NC(=O)C3CC3)cc2CC1=O
- A1 apoptosis 2: -0.4
6. C[C@H]1CCCCO[C@H](CN(C)C(=O)Nc2cccc3ccccc23)[C@@H](C)CN([C@@H](C)CO)C(=O)c2cc(NC(=O)Nc3cccc4ccccc34)ccc2O1
- A1 apoptosis 2: 1.0
7. C[C@@H]1CN([C@H](C)CO)C(=O)CCCn2cc(nn2)CO[C@@H]1CN(C)C(=O)OCc1ccccc1
- A1 apoptosis 2: -1.7
8. C[C@@H]1CCCCO[C@H](CN(C)Cc2ccc3c(c2)OCO3)[C@H](C)CN([C@H](C)CO)C(=O)c2cc(N(C)C)ccc2O1
- A1 apoptosis 2: 0.3
9. C[C@@H]1CN([C@@H](C)CO)C(=O)c2cccc(NC(=O)CCCCCC(=O)Nc3ccccc3N)c2O[C@@H]1CN(C)C(=O)Nc1ccc(F)cc1
- A1 apoptosis 2: 0.4
10. C[C@@H]1CN([C@@H](C)CO)C(=O)c2cc(NC(=O)Nc3ccccc3)ccc2O[C@@H](C)CCCCO[C@@H]1CN(C)C(=O)c1ccccc1
- A1 apoptosis 2: 0.1
11. C[C@@H]1CN([C@@H](C)CO)C(=O)Cc2cc(NC(=O)CCC(F)(F)F)ccc2O[C@@H]1CN(C)Cc1ccccc1
- A1 apoptosis 2: 1.3
12. C[C@H]1CCCCO[C@H](CN(C)Cc2ccc(C(=O)O)cc2)[C@@H](C)CN([C@@H](C)CO)C(=O)c2cc(NS(=O)(=O)c3ccc(F)cc3)ccc2O1
- A1 apoptosis 2: 0.1
13. O=C(O)C1=C[C@@H](c2ccccc2)C[C@@H](OCc2ccc(CO)cc2)O1
- A1 apoptosis 2: 0.5&0.7
14. Cc1noc(C)c1S(=O)(=O)N(C)C[C@@H]1OCCCC[C@@H](C)Oc2ccc(NC(=O)CCC(F)(F)F)cc2C(=O)N([C@H](C)CO)C[C@H]1C
- A1 apoptosis 2: 0.8
15. COc1ccc(S(=O)(=O)Nc2ccc3c(c2)CC(=O)N([C@H](C)CO)C[C@@H](C)[C@@H](CN(C)Cc2ccc(C(F)(F)F)cc2)O3)cc1
- A1 apoptosis 2: -0.3
16. C[C@H](CO)N1C[C@H](C)[C@H](CN(C)C(=O)NC2CCCCC2)Oc2ccc(NC(=O)Nc3cccc4ccccc34)cc2C1=O
- A1 apoptosis 2: -0.1
17. C[C@@H]1CN([C@H](C)CO)C(=O)c2cc(NC(=O)Cn3cnnn3)ccc2O[C@@H]1CN(C)Cc1ccccc1
- A1 apoptosis 2: -0.8
18. C[C@H](CO)N1C[C@H](C)[C@@H](CN(C)CC2CC2)Oc2ccc(NC(=O)Cc3ccccc3)cc2CC1=O
- A1 apoptosis 2: 0.0
19. C[C@@H]1CN([C@@H](C)CO)C(=O)c2cc(NS(=O)(=O)c3cccs3)ccc2O[C@@H](C)CCCCO[C@@H]1CN(C)C(=O)Nc1ccc(C(F)(F)F)cc1
- A1 apoptosis 2: 0.5
20. C[C@@H]1CN([C@@H](C)CO)C(=O)c2cc(NS(=O)(=O)c3cccs3)ccc2O[C@@H](C)CCCCO[C@@H]1CN(C)C(=O)CCCN(C)C
- A1 apoptosis 2: -1.8
21. CC(C)NC(=O)N(C)C[C@@H]1Oc2ccc(NS(=O)(=O)c3ccc(F)cc3)cc2CC(=O)N([C@H](C)CO)C[C@H]1C
- A1 apoptosis 2: 0.2
22. C[C@H](CO)N1C[C@H](C)[C@H](CN(C)S(=O)(=O)c2cccs2)OCc2cn(nn2)CCCC1=O
- A1 apoptosis 2: -1.2
23. C[C@H](CO)N1C[C@H](C)[C@H](CN(C)C(=O)NC2CCCCC2)Oc2ccc(NC(=O)Cc3cn(C)c4ccccc34)cc2CC1=O
- A1 apoptosis 2: -1.3
24. Cc1noc(C)c1NC(=O)N(C)C[C@H]1Oc2ccc(NC(=O)CCN3CCOCC3)cc2CC(=O)N([C@H](C)CO)C[C@H]1C
- A1 apoptosis 2: 0.0
25. C[C@@H]1CCCCO[C@@H](CN(C)Cc2ccccc2)[C@H](C)CN([C@H](C)CO)C(=O)c2cc(NS(C)(=O)=O)ccc2O1
- A1 apoptosis 2: -1.8

26. C[C@@H]1CN([C@H](C)CO)C(=O)c2cccc(NC(=O)c3nc4ccccc4s3)c2O[C@H]1CN(C)S(=O)(=O)c1ccc(Cl)cc1
- A1 apoptosis 2: -0.7
27. Cc1noc(C)c1NC(=O)Nc1ccc2c(c1)C(=O)N([C@@H](C)CO)C[C@@H](C)[C@@H](CN(C)S(=O)(=O)c1ccc(Cl)cc1)OCCCC[C@@H](C)O2
- A1 apoptosis 2: 0.5
28. C[C@H]1CN([C@@H](C)CO)C(=O)c2cccc(NC(=O)Nc3ccccc3)c2O[C@H]1CN(C)C
- A1 apoptosis 2: 0.6
29. Cc1noc(C)c1NC(=O)Nc1ccc2c(c1)C(=O)N([C@H](C)CO)C[C@H](C)[C@@H](CN(C)Cc1ccncc1)OCCCC[C@@H](C)O2
- A1 apoptosis 2: -0.8
30. COc1ccc(CN(C)C[C@H]2OCCCC[C@H](C)Oc3ccc(NS(=O)(=O)c4ccc(Cl)cc4)cc3C(=O)N([C@H](C)CO)C[C@H]2C)cc1
- A1 apoptosis 2: -0.9
31. C[C@@H]1CN([C@H](C)CO)C(=O)c2cccc(NC(=O)c3ccc(-c4nccs4)cc3)c2O[C@H]1CN(C)S(=O)(=O)c1cn(C)cn1
- A1 apoptosis 2: -0.6
32. C[C@@H]1CN([C@@H](C)CO)C(=O)c2cccc(NC(=O)Nc3ccccc3)c2O[C@H]1CN(C)Cc1ccc(Oc2ccccc2)cc1
- A1 apoptosis 2: -1.3
33. COC(=O)c1c(CC[C@@H](CO)NC(=O)Nc2ncn[nH]2)oc(C(=O)Cc2ccccc2)c1C(=O)OC
- A1 apoptosis 2: -0.2
34. O=C(Nc1ccccc1)C1=C[C@H](c2ccc(C(F)(F)F)cc2)C[C@H](OCCCCO)O1
- A1 apoptosis 2: 0.2
35. COc1ccc(NC(=O)N(C)C[C@@H]2Oc3ccc(N(C)C)cc3C(=O)N([C@@H](C)CO)C[C@@H]2C)cc1
- A1 apoptosis 2: 0.8
36. COc1ccc(S(=O)(=O)N(C)C[C@H]2Oc3ccc(NC(=O)Nc4ccc5c(c4)OCO5)cc3C(=O)N([C@@H](C)CO)C[C@H]2C)cc1
- A1 apoptosis 2: 0.2
37. C[C@H](CO)N1C[C@H](C)[C@@H](CN(C)S(=O)(=O)c2ccc(Oc3ccccc3)nc2)OCc2cn(nn2)CCCC1=O
- A1 apoptosis 2: 0.2
38. O=C(C1=C[C@H](c2ccc(C(F)(F)F)cc2)C[C@H](OCCCCO)O1)N1CCCCCCC1
- A1 apoptosis 2: 0.2
39. C[C@@H]1CN([C@H](C)CO)C(=O)c2cc(NC(=O)Nc3ccc(C(F)(F)F)cc3)ccc2O[C@@H]1CN(C)C(=O)Nc1ccccc1
- A1 apoptosis 2: -1.0
40. COc1ccc(S(=O)(=O)N(C)C[C@@H]2Oc3ccc(NS(=O)(=O)c4ccc(C)cc4)cc3C(=O)N([C@@H](C)CO)C[C@@H]2C)cc1
- A1 apoptosis 2: -0.4
41. C[C@H](CO)N1C[C@H](C)[C@@H](CN(C)Cc2ccc3c(c2)OCCN3C)OCc2cnnn2CCCC1=O
- A1 apoptosis 2: -0.5
42. C[C@H]1CN([C@@H](C)CO)C(=O)c2cc(NC(=O)Cc3ccccc3)ccc2O[C@H]1CN(C)C(=O)NC1CCCCC1
- A1 apoptosis 2: 0.6
43. COc1ccc(S(=O)(=O)N(C)C[C@@H]2Oc3ccc(N(C)C)cc3CC(=O)N([C@@H](C)CO)C[C@H]2C)cc1
- A1 apoptosis 2: 0.2
44. O=C(NCc1ccccc1)[C@@]1(Cc2ccccc2)N=C(c2ccc(OCCCO)cc2)O[C@H]1c1ccccc1
- A1 apoptosis 2: -1.3
45. C[C@H](CO)N1C[C@H](C)[C@@H](CN(C)C(=O)Nc2ccc(C(F)(F)F)cc2)OCCCC[C@H](C)Oc2ccc(NS(=O)(=O)c3cn(C)cn3)cc2C1=O
- A1 apoptosis 2: 0.1
46. COc1ccc(S(=O)(=O)Nc2ccc3c(c2)CC(=O)N([C@H](C)CO)C[C@@H](C)[C@@H](CN(C)Cc2ccccc2)O3)cc1
- A1 apoptosis 2: -0.4
47. COc1ccc(S(=O)(=O)N(C)C[C@@H]2Oc3ccc(NS(=O)(=O)c4c(C)noc4C)cc3C(=O)N([C@@H](C)CO)C[C@@H]2C)cc1
- A1 apoptosis 2: 0.5
48. Cc1ccc(N2C(=O)c3ccccc3[C@](C)(C(=O)O)[C@@H]2c2ccc(CO)cc2)nc1
- A1 apoptosis 2: 0.5
49. C[C@H]1CCCCO[C@@H](CN(C)Cc2ccc(C(F)(F)F)cc2)[C@@H](C)CN([C@@H](C)CO)C(=O)c2cc(NC(=O)Cc3ccccc3)ccc2O1
- A1 apoptosis 2: 0.2
50. C[C@H](CO)N1C[C@H](C)[C@@H](CN(C)C)Oc2ccc(NC(=O)CCC(F)(F)F)cc2C1=O
- A1 apoptosis 2: 0.4
51. CC(C)NC(=O)Nc1ccc2c(c1)C(=O)N([C@@H](C)CO)C[C@H](C)[C@@H](CN(C)C(=O)NC1CCCCC1)OCCCC[C@H](C)O2
- A1 apoptosis 2: -0.8
52. COc1ccc(NC(=O)N(C)C[C@@H]2Oc3ccc(NS(=O)(=O)c4ccc(C)cc4)cc3CC(=O)N([C@H](C)CO)C[C@@H]2C)cc1
- A1 apoptosis 2: 0.4

Among those listed so far, 9 contain two or more sulfur atoms.
2. COc1ccc(S(=O)(=O)N(C)C[C@@H]2Oc3ccc(NS(C)(=O)=O)cc3CC(=O)N([C@@H](C)CO)C[C@@H]2C)cc1
- A1 apoptosis 2: -1.1
4. C[C@@H]1CN([C@@H](C)CO)C(=O)c2cc(NS(=O)(=O)c3cccs3)ccc2O[C@@H]1CN(C)S(=O)(=O)c1cccs1
- A1 apoptosis 2: 0.4
19. C[C@@H]1CN([C@@H](C)CO)C(=O)c2cc(NS(=O)(=O)c3cccs3)ccc2O[C@@H](C)CCCCO[C@@H]1CN(C)C(=O)Nc1ccc(C(F)(F)F)cc1
- A1 apoptosis 2: 0.5
20. C[C@@H]1CN([C@@H](C)CO)C(=O)c2cc(NS(=O)(=O)c3cccs3)ccc2O[C@@H](C)CCCCO[C@@H]1CN(C)C(=O)CCCN(C)C
- A1 apoptosis 2: -1.8
22. C[C@H](CO)N1C[C@H](C)[C@H](CN(C)S(=O)(=O)c2cccs2)OCc2cn(nn2)CCCC1=O
- A1 apoptosis 2: -1.2
26. C[C@@H]1CN([C@H](C)CO)C(=O)c2cccc(NC(=O)c3nc4ccccc4s3)c2O[C@H]1CN(C)S(=O)(=O)c1ccc(Cl)cc1
- A1 apoptosis 2: -0.7
31. C[C@@H]1CN([C@H](C)CO)C(=O)c2cccc(NC(=O)c3ccc(-c4nccs4)cc3)c2O[C@H]1CN(C)S(=O)(=O)c1cn(C)cn1
- A1 apoptosis 2: -0.6
40. COc1ccc(S(=O)(=O)N(C)C[C@@H]2Oc3ccc(NS(=O)(=O)c4ccc(C)cc4)cc3C(=O)N([C@@H](C)CO)C[C@@H]2C)cc1
- A1 apoptosis 2: -0.4
47. COc1ccc(S(=O)(=O)N(C)C[C@@H]2Oc3ccc(NS(=O)(=O)c4c(C)noc4C)cc3C(=O)N([C@@H](C)CO)C[C@@H]2C)cc1
- A1 apoptosis 2: 0.5
